# From PubChem BioAssay
# 2A firefly – FMDV 2A StopGo reporter, firefly signal. HEK cells with a luciferase reporter of 2A StopGo recoding. Potency, µM (top dose mostly 57.5 µM), for inactives: top-dose signal change, negative = less light. 120,000 compounds, 0.23% hits; active = well fitted falling curve with a large enough effect; inconclusive = small, poorly fitted or top-dose-only effect; inactive = no such curve, though single readings can be large or run the other way; note: nearly all actives have a fitted effect of over 60% in size; overnight with compound
# 2A Renilla – lowers the Renilla signal of an FMDV 2A StopGo reporter. 120,000 compounds, 0.32% hits. Potency, µM (highest dose often 57.5 µM), for inactives: at the top dose signal change, negative = less light. HEK cells with a luciferase reporter of 2A StopGo recoding. AID 1745857; active means well fitted falling curve with a large enough effect; inconclusive means small, poorly fitted or top-dose-only effect; inactive means no such curve, though single readings can be large or run the other way; note: nearly all actives have a fitted effect of over 55% in size; overnight with compound
# Active calls of the source: *; ? = inconclusive; & = joins results of further samples; [ ] = another dose, or the depositor's remark. % is set by controls: 0 for no effect and ±100 for the full control effect; potency is the fitted concentration of half-maximal effect. Not all compounds are listed; count on the stated rates, not on these rows.
SMILES,2A firefly,2A Renilla
CCOc1cc(/C=C/C(=O)c2ccc(OC)c(Br)c2)ccc1OC,4%,10%
CCOCCCNC(=O)N1CCN(S(=O)(=O)c2ccc3c(ccn3C)c2)CC1,2%,0%
CSc1cccc(NC(=O)Cn2nc(C)c3sc4ccccc4c3c2=O)c1,-8%,-8%
NS(=O)(=O)c1cccs1,10%,-3%
NC(Cc1ccccc1)(Cc1ccccc1)C(=O)O,-2%,8%
Cc1ccc2[nH]c(C)c(CCN)c2c1,3%,0%
COc1ccccc1N(CC(O)Cn1cnc2ccccc21)S(=O)(=O)c1ccc(C)cc1 (centres undefined),-5%,63%[activator]
CC(=O)N1CCCc2cc(S(=O)(=O)N3CCCC(C(=O)NCc4ccccc4Cl)C3)ccc21 (centres undefined),-24%,20%
Cc1ccc2nc(-c3ccc(Cl)c(NC(=O)c4cccc([N+](=O)[O-])c4C)c3)oc2c1,159%[activator],-11%
Cc1cc(C)c(NC(=O)CSc2nncn3c2cc2oc(C)cc23)c(C)c1,-20%,-13%
CCN(CC)CCNc1nc(C23CC4CC(CC(C4)C2)C3)cs1,-16%,-7%
Cc1cc(OCC(=O)OCCCC(=O)c2ccc(F)cc2)ccc1Cl,0%,13%
CC(C)CC1NC(=O)N(Cc2cc(F)cc3cccnc23)C1=O (centres undefined),14%,10%
CCn1c(CN2CCN(c3cccc(Cl)c3)CC2)nc2c1c(=O)[nH]c(=O)n2C,1%,-9%
Cc1cn2c3c(=O)[nH]c(=O)n(C)c3nc2n1CCNc1cccc(Cl)c1,-10%,-13%
CS(=O)(=O)CC[C@@H](C(=O)NCCc1ccccc1)N1Cc2ccccc2C1=O,-2%,-11%
CCOC(=O)CNC(=O)N1CCN(c2nnc(C)c3c(C)n(-c4ccc(Cl)cc4)nc23)CC1,-18%,-19%
CN(C)c1ccc(NC(=O)C2(c3cccs3)CCOCC2)cc1,-17%,-8%
Cc1ccc(CSCC(=O)N2CCN(c3ccccc3F)CC2)cc1,-16%,-13%
O=C(Cc1cccc(F)c1)Nc1ccccc1C(F)(F)F,4%,5%
C=CCNc1nc(C(=O)OCC(=O)c2cc(C)n(C3CC3)c2C)cs1,23%,-21%
O=C(O)c1c(CNCc2cccc(F)c2)c2ccccc2n1Cc1ccccc1,-22%,118%[activator]
C/C=C/C=C/C(=O)NC1CCCc2ccccc21 (centres undefined),0%,0%
Cc1cc(C(C)(C)C)cc(C)c1CC1=NCCN1,-8%,-6%
Cc1ccc2nc(Cl)c3cc(C(=O)NC4CCCC4)sc3c2c1,6%,3%

# Pulled one by one from the entries so far (4):
SMILES,2A firefly,2A Renilla
Cc1cc(C(C)(C)C)cc(C)c1CC1=NCCN1,-8%,-6%
CCOCCCNC(=O)N1CCN(S(=O)(=O)c2ccc3c(ccn3C)c2)CC1,2%,0%
CS(=O)(=O)CC[C@@H](C(=O)NCCc1ccccc1)N1Cc2ccccc2C1=O,-2%,-11%
COc1ccccc1N(CC(O)Cn1cnc2ccccc21)S(=O)(=O)c1ccc(C)cc1 (centres undefined),-5%,63%[activator]

# New compounds follow.
SMILES,2A firefly,2A Renilla
C=C(C)Cn1c(N2CCN(c3ccccc3)CC2)nc2c1c(=O)n(C)c(=O)n2C,?,?
Cc1ccc(C)c(NC(=O)CSc2nnc(NC(=O)Nc3ccccc3)s2)c1,-12%,-1%
Cn1nc(C(=O)OCC(=O)c2ccc(OC(F)F)cc2)c2ccccc2c1=O,14%,-1%
O=C(Nc1ccc2c(c1)OCCO2)N1c2ccccc2Sc2ccccc21,16%,-8%
CS(=O)(=O)N1CCCCC1C(=O)NC1CCCCCCC1 (centres undefined),10%,2%
CCc1nn2c(=O)c(S(=O)(=O)Nc3ccc(OC)c(Cl)c3)c(C)nc2s1,-16%,7%
O=C(Nc1cccc(Cl)c1)c1ccc2nc(Cc3ccccc3)oc2c1,?,?
CCOc1ccc(S(=O)(=O)Nc2ccc3c(c2)c(C(C)=O)c(C)n3S(=O)(=O)c2ccc(OCC)cc2)cc1,13%,0%
CCC(=O)Oc1cccc2cc(-c3nc(-c4ccc(Cl)cc4)no3)c(=O)oc12,2%,-2%
COc1cc(C(=O)Nc2ccccc2-c2nc(-c3ccc(C)cc3)no2)cc(OC)c1OC,-15%,35µM*
CN1CCc2nc(NC(=O)CCn3c(=O)oc4ccccc43)sc2C1,-12%,-12%
CCN(CC)CCCC(C)NCC1CC2C=CC1C2 (centres undefined),18%,2%
Cc1ccccc1CN1c2ccccc2-c2nc(SCC(N)=O)ncc2S1(=O)=O,-7%,-3%
COC(=O)c1cn(CC(=O)Nc2ccccc2)c2ccccc12,9%,10%
O=C(CN1C(=O)C2(SCC(=O)N2c2ccc(F)c(F)c2)c2ccccc21)Nc1cccc(Cl)c1 (centres undefined),?,-26%
Cc1ncc(CO)c2c1Oc1nc(-c3ccc(F)cc3)nc(SCc3ccc(F)cc3Cl)c1C2,-17%,-17%
COc1ccc(-c2nc(SCC(=O)Nc3ccc4c(c3)OCO4)c(-c3ccc(OC)cc3)[nH]2)cc1,-11%,131%[activator]
CCOC(=O)c1oc2ccccc2c1COC(=O)CNC(=O)c1ccccc1,39%[activator],4%
Fc1ccccc1/C=N/NC(=S)NCc1ccccc1,0%,14%
Cc1ccc(NC(=S)NCCC2=CCCCC2)cc1F,176%[activator],0%
Cc1cccc(Cn2c(NCCN3CCOCC3)nc3c2c(=O)n(C)c(=O)n3C)c1,15%,4%
O=C(NC1CCCCC1)c1ccccc1-c1ncc(-c2ccccc2F)o1,34%[activator],43%[activator]
Cc1nc(SCC(=O)Nc2ccc(Cl)cc2C(F)(F)F)[nH]c(=O)c1Cc1ccccc1,-8%,-10%
CCS(=O)(=O)N1CCCc2cc(C(=O)Nc3cccc(C(C)=O)c3)ccc21,90%[activator],5%
O=C(Nc1oc2ccccc2c(=O)c1-c1ccc(F)cc1)c1ccccc1,20%,23%

# New compounds follow
SMILES,2A firefly,2A Renilla
CCc1ccc(NC(=O)c2ccc(F)c(S(=O)(=O)N3CCN(c4cc(C)ccc4C)CC3)c2)cc1,-12%,-1%
CC(C)(C)c1ccc(SCC(=O)NC(C)(C#N)C2CC2)cc1 (centres undefined),-12%,-5%[1.06 µM]
C/C(=N/Nc1ccc(S(N)(=O)=O)cc1[N+](=O)[O-])c1ccc(Br)s1,1%,-13%
Cc1cccc(Nc2nc3c(S(=O)(=O)c4ccc(Br)cc4)nnn3c3ccsc23)c1C,-18%,-1%
CCOC(=O)CCCNC(=O)COC(=O)c1nn(C)c(=O)c2ccccc12,-2%,-5%
COC(=O)c1ccccc1NC(=O)CN1C(=O)COc2ccc(Cl)cc21,-2%,7%
CC(NC(=O)CNC(=O)c1ccc(N2CCCC2=O)cc1)c1ccc(Cl)cc1Cl (centres undefined),-8%,-15%
COc1ccc(CNC(=O)c2cc(Nc3ccc(C)cc3C)nc3ccccc23)cc1,5%,5%
Cc1ccc(-n2c(=O)c3oc4ccccc4c3n(Cc3ccccc3)c2=O)cc1C,-18%,-2%
CN(C)c1nc(-c2cn(CCC#N)c3ccccc23)cs1,-16%,-22%
Cc1ccc(N2CCN(S(=O)(=O)c3ccccc3Cl)CC2)cc1Cl,2%,-11%
COc1ccc(CNC(=O)c2cc3cc(C)ccc3[nH]2)cc1,95%[activator],0%
NC(=O)c1cc(S(=O)(=O)NCC2CCN(Cc3ccc(F)cc3)CC2)cs1,4%,-5%
CCOc1ccc(OCC)c(Nc2ccc3cc(S(=O)(=O)N4CCCC4)ccc3n2)c1,-11%,-7%
CC(C)CNC(=O)COC(=O)Cc1nn(C)c(=O)c2ccccc12,3%,0%
COc1cc(C)c(C(C)C)cc1S(=O)(=O)n1ccnc1C(C)C,-4%,271%[activator]
Cc1nn(-c2ncnc3nc[nH]c23)c2c1C(c1ccc(C(C)C)cc1)SCC(=O)N2 (centres undefined),-6%,-10%
CCCCOc1ccc(Cn2c(=O)sc3ccccc32)cc1,28%,21%
COc1ccc(OC)c(CNC(=O)CCS(=O)(=O)c2ccc3c(c2)oc(=O)n3C)c1,-18%,-9%
Cc1csc(SC(C)C(=O)c2ccc(F)cc2)n1 (centres undefined),17%,12%
COc1ccc(-c2cc(C(=O)N3CCCC3)c3ccccc3n2)c(OC)c1,12%,52%[activator]
COc1cc(CC(=O)NC2CCC(C)CC2)cc(OC)c1OC (centres undefined),26%,8%
O=C(c1cc(-c2ccc(F)cc2)nc2ccccc12)N1CCN(C2CCS(=O)(=O)C2)CC1 (centres undefined),64%[activator],21%
COc1ccc(CNC(=O)CCC2N=C3c4ccccc4N=C(SCc4ccc(F)cc4)N3C2=O)cc1 (centres undefined),-7%,14%
Cc1cccc(OCCn2c(SCC(N)=O)nc3ccccc32)c1,16%,14%

# In the list so far, these contain bromine.
SMILES,2A firefly,2A Renilla
CCOc1cc(/C=C/C(=O)c2ccc(OC)c(Br)c2)ccc1OC,4%,10%
C/C(=N/Nc1ccc(S(N)(=O)=O)cc1[N+](=O)[O-])c1ccc(Br)s1,1%,-13%
Cc1cccc(Nc2nc3c(S(=O)(=O)c4ccc(Br)cc4)nnn3c3ccsc23)c1C,-18%,-1%

# Complete entries, quoted from the list:
# Entry for `CC(C)(C)c1ccc(SCC(=O)NC(C)(C#N)C2CC2)cc1` (centres undefined) → 2A firefly: -12%; 2A Renilla: -5%[1.06 µM]
# Entry for `COc1ccc(OC)c(CNC(=O)CCS(=O)(=O)c2ccc3c(c2)oc(=O)n3C)c1` → 2A firefly: -18%; 2A Renilla: -9%

# The list goes on:
SMILES,2A firefly,2A Renilla
Cc1ccc(S(=O)(=O)NCc2ccccc2S(=O)(=O)N2CCCCC2)cc1C,?,-53%
CSc1nnc([C@H](C)NC(=O)OC(C)(C)C)o1,-5%,-13%
CCOC(=O)c1cccc(NC(=O)NCc2ccc3c(c2)CCN3C(=O)CC)c1,-23%,-10%
CC1Sc2c(C(=O)O)c(=O)c3cc(F)c(N4CCNCC4)cc3n21 (centres undefined),-11%[11.5 µM],-9%
CC(Cc1cccs1)NC(=O)C1CCCO1 (centres undefined),0%,12%
O=C(COc1ccc2c(-c3ccccc3)cc(=O)oc2c1)NC1CCCCC1,?,?
N#C/C(=C/c1ccco1)C(=O)Nc1ccc(N2CCOCC2)cc1,154%[activator],14%
COc1ccc2[nH]cc(C(C(=O)O)N3CCN(Cc4cccc5ccccc45)CC3)c2c1 (centres undefined),11%,-4%
COc1ccc(CNC(=O)CCCc2cn(C)c3ccccc23)c(OC)c1,-1%,-16%
CCCOc1ccc(C(=O)CCN(C)C)cc1,0%,1%
CCOC(=O)/C=C/C(=O)OCC(=O)c1ccc(Cl)s1,2%,-4%
COc1ccccc1CNC(=O)CCNS(=O)(=O)c1cccc2nsnc12,-8%,12%
CC1CCC(NC(=O)c2cc3ccccc3c(Cl)n2)CC1 (centres undefined),0%,1%
COCCN1C(=O)C(=O)/C(=C(/O)c2ccccc2)C1c1ccccc1 (centres undefined),11%,8%
CCN(CC(=O)NC(=O)NC)C1CC1,18%,4%
Nc1c(C(=O)Nc2ccc(Cl)cc2)sc2nc3c(cc12)N1CCC3CC1,34%[activator],?
C=CCOc1ccc(NC(=O)C2CC2)cc1,104%[activator],10%
c1ccc(-n2nnnc2CSc2nnc(N3CCCCC3)n2-c2ccccc2)cc1,23%,49%
COc1ccc(C)cc1NC(=O)C(=O)NCCc1csc(-c2ccc(C)cc2)n1,-12%,-4%
CCC(C)C(=O)NCCc1ccccn1 (centres undefined),6%,2%
CNC(=O)CN(Cc1ccccc1F)S(=O)(=O)c1ccc(C)cc1,-8%,1%
CC(NC(=O)c1cccnc1)c1cccc(C(F)(F)F)c1 (centres undefined),0%,4%
CS(=O)(=O)N1CCN(CC(=O)Nc2sc3c(c2C#N)CCCC3)CC1,-1%,-1%
CCn1nc(C(=O)Nc2nc(-c3ccccn3)cs2)c2ccccc2c1=O,17%,15%
CCn1cc(C(=O)Cn2cnc3ccccc32)c2ccccc21,?,?

# The list continues.
SMILES,2A firefly,2A Renilla
Cc1cccc(NC(=O)CSc2nc(-c3cccs3)cc(C(F)(F)F)c2C#N)c1,-8%,-9%
CN(C)CCCNC/C=C/c1ccccc1,-3%,-14%
CCOc1ccc(CNC(=O)CSc2nnc(C)c3c(C)n(-c4ccc(Cl)cc4)nc23)cc1,-18%,-16%
CC(C)CC(NC(=O)c1ccco1)C(=O)O (centres undefined),7%,5%
CC(=O)NC1=NN(C(C)=O)C2(S1)C(=O)N(Cc1ccccc1)c1c(C)cccc12 (centres undefined),-2%,274%[activator]
Cc1cccc(-c2noc(-c3cc(C(C)C)[nH]n3)n2)c1,23%,-9%
CN(C)C(=O)CSc1nc2cc(S(=O)(=O)N3CCOCC3)ccc2o1,-7%,-11%
COc1ccc(CNC(=O)C2CCCN(C(=O)N3CCOc4ccccc43)C2)cc1 (centres undefined),0%,-12%
CCn1cnc2cc(NCc3ccc(N(C)C)cc3)ccc21,-18%,-4%
CCOC(=O)c1c(C)c(-c2ccccc2)n(CC(=O)Nc2cc(C)ccc2OC)c1C,7%&-31%,-2%&-19%
CCC(=O)N1CCc2cc(S(=O)(=O)NC(C(=O)Nc3cc(OC)cc(OC)c3)C(C)C)ccc21 (centres undefined),2%,15%
O=C(O)CCCNC(=O)c1cc(-c2ccccc2)nc2ccccc12,-6%,-8%
Cc1cccc(OCCSc2nc(-c3cccs3)nc3cc(=O)[nH]n23)c1,-10%,-6%
O=C(CCc1ncc(-c2ccccc2)o1)N1CCN(c2ccc([N+](=O)[O-])cc2)CC1,13%,0%
